Mtb MbtI inh: MbtI salicylate synthase inhibitors, primary screen, biochemical, fluorescence intensity; 100,000 compounds, 0.89% hits; P9WFX0; inhibition, %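 (about 17 µg/mL by stock and volumes)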; purified MbtI enzyme, fluorescence intensity read-out;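 active = above 50% in both replicates, above 80% if mildly self-fluorescent; inactive = the rest, strongly fluorescent compounds included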;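 also: 0% = mean of negative and 100% = mean of positive controls; one replicate is shown; some compounds called inactive have numbers as strong as hits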
MenB inh: M. tuberculosis MenB inhibitors, primary screen, biochemical, absorbance; MenB enzyme assay, absorbance read-out; some hits fall short of the stated cut; 100,000 compounds, 0.43% hits; inhibition, %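 (about 12 µg/mL by stock and volumes)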; AID 540299, 2011; 1,4-dihydroxy-2-naphthoyl-CoA synthase (Mycobacterium tuberculosis (strain ATCC 25618 / …;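 active = mean of two replicates above 30%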;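 also: 0% = no compound and 100% = wells with inactive enzyme; the first replicate is given; strong numbers were not always called active; inactives centre near -10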
Target sequence (P9WNP5 whole entry, looked up): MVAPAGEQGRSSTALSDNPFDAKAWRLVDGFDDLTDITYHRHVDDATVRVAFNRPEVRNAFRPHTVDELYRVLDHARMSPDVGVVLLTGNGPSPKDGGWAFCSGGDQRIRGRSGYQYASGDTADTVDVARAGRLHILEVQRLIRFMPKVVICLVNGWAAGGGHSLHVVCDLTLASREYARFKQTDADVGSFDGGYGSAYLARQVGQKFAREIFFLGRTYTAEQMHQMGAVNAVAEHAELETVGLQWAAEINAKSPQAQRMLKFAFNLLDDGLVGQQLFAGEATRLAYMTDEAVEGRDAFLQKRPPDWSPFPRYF
Polio RdRp inh: poliovirus RdRp elongation inhibitors, primary screen, biochemical, fluorescence polarization, total intensity | poliovirus polymerase elongation; stronger effect = lower value | % elongation, % (compound at 16.7 µg/mL) | 150,000 compounds, 0.66% hits | Genome polyprotein (Poliovirus type 1 (strain Mahoney)), P03300; in the data active = % elongation below about 90%; also: some results filed as inactive read as strong as hits
Target sequence (P03300 1749-2209 limits assumed): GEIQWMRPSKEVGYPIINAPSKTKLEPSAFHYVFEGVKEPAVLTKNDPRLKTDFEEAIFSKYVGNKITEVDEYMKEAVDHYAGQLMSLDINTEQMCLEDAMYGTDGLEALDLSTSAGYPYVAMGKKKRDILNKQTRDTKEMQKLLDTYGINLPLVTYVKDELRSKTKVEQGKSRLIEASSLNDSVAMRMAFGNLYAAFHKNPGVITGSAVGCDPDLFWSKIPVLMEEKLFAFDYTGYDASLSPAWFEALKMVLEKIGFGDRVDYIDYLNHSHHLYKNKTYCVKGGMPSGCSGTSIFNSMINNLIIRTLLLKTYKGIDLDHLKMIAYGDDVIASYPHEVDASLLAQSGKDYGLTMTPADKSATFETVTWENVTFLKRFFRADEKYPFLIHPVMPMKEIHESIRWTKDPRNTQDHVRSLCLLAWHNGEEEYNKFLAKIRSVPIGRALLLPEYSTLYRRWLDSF
Polio RdRp inh intensity: also measured in Polio RdRp inh; calls as there; % elongation; measured here: total intensity read-out; formula for this scale not given here;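 total fluorescence in place of polarization; lower means less elongation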
* = called active by the depositor; nt = not tested or not shown; & = joins results of further samples.

#1 CO[C@]12C[C@@H](COC(=O)c3cncc(Br)c3)CN(C)[C@@H]1Cc1cn(C)c3cccc2c13
#2 CN(C)c1nc(C23CC4CC(CC(C4)C2)C3)cs1
#3 CCOC(=O)c1c(C)[nH]c(C)c1S(=O)(=O)NCC(=O)N1CCN(c2ccccc2)CC1
#4 CC1=C2C(=O)CCCC2=Nc2ccccc2N1
#5 O=C(/C=C/c1nc2ccccc2s1)OCC(=O)N1CCCC1=O
#6 COc1cc(CO)c(Br)cc1O
#7 O=C(NCCSc1ccccc1)c1ccco1
#8 Cc1ccc2onc(OC(=O)NC(C)(C)C)c2c1

assay / compound	1	2	3	4	5	6	7	8
Mtb MbtI inh	2&6	-3	-18	11	-17	7	nt	-9
MenB inh	3&-1	-31	-4	6	2	4	-4	12
Polio RdRp inh	99&98	104	98	99	109	100	103	101
Polio RdRp inh intensity	105&101	105	100	100	111	103	100	107

#9 Cc1ccc(NC(=O)CCNS(=O)(=O)c2ccc3nc(-c4ccccc4)[nH]c3c2)cc1
#10 CSc1ccc(-c2ccc(SC)cc2)cc1
#11 Cn1c(C(=O)NCCCN2CCN(c3ccccc3F)CC2)cc2c(=O)[nH]c3ccccc3c21
#12 COc1ccc2c(CC(=O)OCc3c(C)noc3C)coc2c1
#13 CN1C(=O)[C@]23CC4=CC=C[C@H](O)[C@H]4N2C(=O)[C@@]1(CO)SS3
#14 CC1(C)NC(=O)N(CCOc2ccc(F)cc2)C1=O
#15 CCSc1ncc(Cl)c(C(=O)Nc2ccc(S(=O)(=O)N3CC(C)OC(C)C3)cc2)n1 (stereo not given)
#16 CC1=CC(C)C(C[N+]2(C)CCCCC2)C(C)C1 (stereo not given)

assay / compound	9	10	11	12	13	14	15	16
Mtb MbtI inh	-86	20	0	-8	50	-11	10	1
MenB inh	1	-7	9	-12	nt	-26	-10	nt
Polio RdRp inh	101	103	98	98	101	102	102	101
Polio RdRp inh intensity	106	107	102	97	100	102	101	97

#17 Cc1cc2nnc(SCC(=O)c3cc(C)n(Cc4ccccc4)c3C)n2c2ccccc12
#18 CC(NC(=O)c1cccc(F)c1)C(c1cccs1)N1CCN(C)CC1 (stereo not given)
#19 Cc1ccc2c(c1)N(C(=O)Nc1ccccc1C)CC(C)O2 (stereo not given)
#20 COc1cccc(C2C(C#N)=C(N)Oc3n[nH]c(C(C)(C)C)c32)c1 (stereo not given)
#21 CN(C(=O)COCc1cc(-c2ccco2)on1)C1CCCCC1
#22 Cc1ccc(/C(O)=C2/C(=O)C(=O)N(CCN(C)C)C23C(=O)N(C)c2ccccc23)cc1 (stereo not given)
#23 COc1cc(OC)c(OC)cc1CN1CCC(N2CCN(c3ccccc3OC)CC2)CC1
#24 COc1ccccc1/C=C/C(=O)Nc1sc2c(c1C(N)=O)CCC2

assay / compound	17	18	19	20	21	22	23	24
Mtb MbtI inh	-3	3	-4	-2	13	5	0	nt
MenB inh	-19	16	8	9	-4	-6	-3	-31
Polio RdRp inh	102	99	100	102	103	103	103	104
Polio RdRp inh intensity	104	103	102	103	106	104	102	111

#25 CCc1nc(SCC(=O)C(C)(C)C)c(C#N)cc1C
#26 CC(C)CCNC(=O)C12CC3CC(CC(O)(C3)C1)C2
#27 O=C(NCc1cccnc1)c1c(O)c2cccc3c2n(c1=O)CC3
#28 COC(=O)c1cnn2c3c(c(C)nc12)CCCC3
#29 CN(C)S(=O)(=O)c1cccc(-c2nnc3n2N=C(c2cccs2)CS3)c1
#30 CCOC(=O)/C(C#N)=C/c1ccc(N2CCCCC2)o1
#31 O=c1[nH]c2ccccc2cc1CNc1ccccc1
#32 CCc1ccc(CNC(=O)CN2C(=O)CSc3ncccc32)cc1

assay / compound	25	26	27	28	29	30	31	32
Mtb MbtI inh	nt	-7	-36	113	97*	14	-11	17
MenB inh	-28	-26	7	10	-52	-180	-24	0
Polio RdRp inh	105	100	103	100	76*	82	103	102
Polio RdRp inh intensity	106	93	105	99	82*	193	100	103

#33 Cc1cc(C(=O)C(C)OC(=O)c2cccc(-n3cnnn3)c2)c(C)n1-c1ccccc1 (stereo not given)
#34 Cc1csc2ncnc(Sc3ccccc3NS(=O)(=O)c3ccc(F)cc3)c12
#35 N#Cc1ccccc1OCc1nc2ccccc2o1
#36 O=C(c1cnn2c(C(F)(F)F)cc(-c3ccccc3)nc12)N1CCCC1
#37 CS(=O)(=O)c1nc(-c2ccc(Cl)cc2)n[nH]1
#38 COc1ccccc1Cn1nccc1N
#39 CC1CCCCN1C(=O)CSc1nc2ccccc2n1-c1ccccc1 (stereo not given)
#40 Cc1ccc(CO/N=C/c2cccs2)cc1

assay / compound	33	34	35	36	37	38	39	40
Mtb MbtI inh	-4	-6	-3	3	nt	1	-6	14
MenB inh	-9	4	-21	-11	0	-24	nt	-19
Polio RdRp inh	100	99	101	104	100	101	99	110
Polio RdRp inh intensity	101	104	103	106	107	102	100	105

#41 CC(C)CNC(=O)C1CCN(S(=O)(=O)c2ccc(-n3cnnn3)cc2)CC1
#42 Cc1ccc(NC(=O)/C(C#N)=C\c2ccc(Sc3nc4ccccc4[nH]3)o2)cc1C
#43 O=C(CSc1ccccc1Cl)c1cc2ccccc2o1
#44 CC(C)(C)n1ncc2c(=O)n(Cc3cccc(C(F)(F)F)c3)cnc21
#45 CNC(=S)Nc1ccc(OC)cc1C
#46 OCCN1C[C@@H](O)[C@@H](O)C(O)C1CO (stereo not given in full)
#47 S=C1NCN(Cc2ccc3c(c2)OCO3)CN1
#48 CN(C)/N=C/C=C1\CCC/C(=C\C=N\N(C)C)C1=O

assay / compound	41	42	43	44	45	46	47	48
Mtb MbtI inh	-12	2	11	-4	8	-11	13	28
MenB inh	-46	-84	nt	-21	5	2	-14	-360
Polio RdRp inh	102	125	101	105	100	99	100	nt
Polio RdRp inh intensity	103	153	94	107	100	103	101	nt

Entries by screen from above.
Nos. 43 to 48 in MenB inh: nt, -21, 5, 2, -14, -360

Other records.
#49 Cc1ccc(N2CC(C(=O)O)CC2=O)cc1 (stereo not given)
#50 CCOC(=O)c1ccc(C(=O)OCC)nc1
#51 CN1OC2C(=O)N(c3ccccc3)C(=O)C2C1c1ccc(F)cc1 (stereo not given)
#52 Cc1cc(C)n2nc(SCC(=O)N(C)c3c(N)n(Cc4ccccc4)c(=O)[nH]c3=O)nc2n1
#53 O=c1c2c3c(sc2ncn1Cc1nn[nH]n1)CCCC3
#54 O=c1[nH]cc(-c2nc3ccccc3s2)c(=O)[nH]1
#55 O=C(CN1C(=O)CCSc2ccccc21)NCCCN1CCN(C2CCCCC2)CC1
#56 O=C(O)COCC(=O)Nc1cc(Cl)cc(Cl)c1

assay / compound	49	50	51	52	53	54	55	56
Mtb MbtI inh	-12	1	1	-5	28	115	-3	-2
MenB inh	nt	22	nt	-11	14	-4	-6	-6
Polio RdRp inh	101	101	101	nt	97	98	102	103
Polio RdRp inh intensity	96	101	104	nt	100	105	103	106

#57 O=C(CSC1CCCCC1)Nc1cccnc1Cl
#58 O=C(NCc1ccccn1)c1ccc(N2CCCC2=O)cc1
#59 Cc1cccc(C(=O)NCc2n[nH]c(=S)n2-c2ccccc2)c1
#60 CN1CCSc2ccc(C(=O)NCCCN3CCCC3)cc21
#61 c1nc2nnnn2c2c1CCCC2
#62 NC(=O)C1CN(C(=O)Cc2ccc3c(c2)CCC3)c2ccccc2O1 (stereo not given)
#63 CCOC(=O)c1sc(-n2ncc3c(=O)[nH]cnc32)nc1C
#64 COC(=O)c1ccc(CSc2nncn2C)cc1

assay / compound	57	58	59	60	61	62	63	64
Mtb MbtI inh	-8	2	58*	118	-4	11	9	-5
MenB inh	-32	-36	2	-11	-30	-32	-60	2
Polio RdRp inh	98	104	102	100	104	101	102	104
Polio RdRp inh intensity	103	105	105	100	108	110	101	106

#65 O=C(c1noc2c1COc1ccccc1-2)N1CCC2(CC1)OCCO2
#66 O=C(Cn1ncc2c([nH]c3ccccc32)c1=O)N1CCCCC1
#67 COc1cc(Cc2cnc(N)nc2N)cc(OC)c1OC
#68 C=CCSc1nnc(NC(=O)CSc2nc(CCC)cc(=O)[nH]2)s1
#69 CCOc1cc2c(cc1OCC)C1C(C(=O)Nc3ccc4c(c3)OCO4)c3ccccc3C(=O)N1CC2 (stereo not given)
#70 CC(C)(C)N=Cc1cc(-c2ccccc2)sc1S
#71 O=C(CSc1nnc2n1CCCN2)c1cccs1
#72 O=C(NCCc1ccccc1)c1ccc2c(c1)N(Cc1ccc(F)cc1)C(=O)c1ccccc1S2=O (stereo not given)

assay / compound	65	66	67	68	69	70	71	72
Mtb MbtI inh	-3	140	-5&-12	6	2	11	12	2
MenB inh	11	2	-12&-3	0	-5	-17	-2	-24
Polio RdRp inh	103	103	100&100	97	101	103	103	102
Polio RdRp inh intensity	107	105	102&98	90	102	106	100	106

#73 O=C(Oc1c(-c2ccccc2)oc2ccccc2c1=O)c1cccnc1
#74 CC1=CC(=O)NP(=O)(Oc2ccccc2)N1 (stereo not given)
#75 Cc1cc(C(=O)COc2ccccc2Cl)c(C)n1Cc1cccs1
#76 Cc1ccc2cc(C)c(NCc3cccnc3)nc2c1
#77 NS(=O)(=O)c1ccc(CNC(=O)C2CCCCC2)cc1
#78 Fc1cccc(CSC2=NCN(C3CC3)CN2)c1
#79 CC(=O)OCC1OC(Oc2ccccc2)C(OC(C)=O)C(OC(C)=O)C1OC(C)=O (stereo not given)
#80 CCNC(=O)c1ccc2c(c1)N(C)CCS2

assay / compound	73	74	75	76	77	78	79	80
Mtb MbtI inh	-6	10	4	nt	-2	-12	5	-64
MenB inh	-12	-3	-38	-25	-17	-17	-5	4
Polio RdRp inh	99	102	107	100	105	110	101	103
Polio RdRp inh intensity	102	102	107	91	102	111	101	107

12 entries from above, set out differently:
Sequence of screens – Mtb MbtI inh | MenB inh | Polio RdRp inh | Polio RdRp inh intensity
9) Cc1ccc(NC(=O)CCNS(=O)(=O)c2ccc3nc(-c4ccccc4)[nH]c3c2)cc1
→ -86 | 1 | 101 | 106
10) CSc1ccc(-c2ccc(SC)cc2)cc1
→ 20 | -7 | 103 | 107
11) Cn1c(C(=O)NCCCN2CCN(c3ccccc3F)CC2)cc2c(=O)[nH]c3ccccc3c21
→ 0 | 9 | 98 | 102
12) COc1ccc2c(CC(=O)OCc3c(C)noc3C)coc2c1
→ -8 | -12 | 98 | 97
13) CN1C(=O)[C@]23CC4=CC=C[C@H](O)[C@H]4N2C(=O)[C@@]1(CO)SS3
→ 50 | nt | 101 | 100
14) CC1(C)NC(=O)N(CCOc2ccc(F)cc2)C1=O
→ -11 | -26 | 102 | 102
15) CCSc1ncc(Cl)c(C(=O)Nc2ccc(S(=O)(=O)N3CC(C)OC(C)C3)cc2)n1 (stereo not given)
→ 10 | -10 | 102 | 101
16) CC1=CC(C)C(C[N+]2(C)CCCCC2)C(C)C1 (stereo not given)
→ 1 | nt | 101 | 97
17) Cc1cc2nnc(SCC(=O)c3cc(C)n(Cc4ccccc4)c3C)n2c2ccccc12
→ -3 | -19 | 102 | 104
18) CC(NC(=O)c1cccc(F)c1)C(c1cccs1)N1CCN(C)CC1 (stereo not given)
→ 3 | 16 | 99 | 103
19) Cc1ccc2c(c1)N(C(=O)Nc1ccccc1C)CC(C)O2 (stereo not given)
→ -4 | 8 | 100 | 102
20) COc1cccc(C2C(C#N)=C(N)Oc3n[nH]c(C(C)(C)C)c32)c1 (stereo not given)
→ -2 | 9 | 102 | 103

(further entries)
#81 CCN(Cc1ccncc1)C(=S)NCc1ccccc1
#82 CCOC(=O)Nc1ccc(C(=O)OC)cc1
#83 FC(F)(F)c1nc(NCc2cccnc2)c2ccccc2n1
#84 COc1ccc(/C=C/C(=O)OCc2cc(=O)n3cc(C)ccc3n2)cc1S(=O)(=O)N1CCOCC1
#85 O=C(Nc1ccc(Cl)c(Cl)c1)Oc1ccc(NC(=O)c2ccco2)cc1
#86 O=C(COC(=O)c1ccc(Cl)s1)c1ccc2[nH]c(=O)[nH]c2c1
#87 c1ccn2c(SCc3nnc(-c4cc5c(s4)CCCC5)o3)nnc2c1
#88 O=C1OCCC1Sc1nnc(-c2ccc(Cl)cc2)o1 (stereo not given)

assay / compound	81	82	83	84	85	86	87	88
Mtb MbtI inh	9	0	-7	-6	-4	5	-1	-10
MenB inh	-31	-7	-28	-12	-26	-12	-26	-15
Polio RdRp inh	102	100	100	101	101	79*	101	103
Polio RdRp inh intensity	94	101	104	99	99	76*	98	103

#89 O=S(=O)(NCc1ccccn1)c1ccccc1
#90 Cc1nc2sccn2c1-c1csc(NCc2ccco2)n1
#91 Cc1nnn(C23CC4CC(CC(C(=O)NCc5ccccc5)(C4)C2)C3)n1
#92 Cc1ccc(S(=O)(=O)NC(=O)c2cc(C)n(-c3ccccc3)c2C)cc1
#93 Cc1ccccc1Nc1nc(N)nc(COc2ncnc3sccc23)n1
#94 N#Cc1ccccc1N=Cc1ccc(Br)cc1
#95 O=S(=O)(c1ccccc1)c1cnc2ccccc2c1N1CCC2(CC1)OCCO2
#96 NC(=O)COc1ccccc1O

assay / compound	89	90	91	92	93	94	95	96
Mtb MbtI inh	-7	nt	-6	2	-18	nt	7	-3
MenB inh	6	-14	-12	5	-16	-8	-2	-19
Polio RdRp inh	100	103	100	101	115	106	101	98
Polio RdRp inh intensity	103	90	103	108	125	112	99	102
